MgrA DNA FP: alters Staphylococcus aureus MgrA binding to DNA; 84,000 compounds, 0.13% hits; inhibition, %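 (about 10 µg/mL by stock and volumes)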; fluorescence polarization;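 active means above 50% in either of two replicates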;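 further: 0% = protein plus DNA without compound and 100% = DNA alone without protein; higher means less MgrA bound to DNA so lower polarization; one replicate is shown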
Sa helicase inh: blocks Staphylococcus aureus DNA helicase. inhibition, %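 (tested at about 80 µM)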. purified S. aureus helicase, fluorescence unwinding assay; about half of the hits fall short of the stated cut. 120,000 compounds, 0.05% hits;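 active means both duplicates at 50% or more, or one of them with a favoured structure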;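 further: 0% = mean of negative control wells and 100% = mean of positive control wells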
An asterisk follows results filed as active; / = no result given. Only part of the results is shown; the hit share may differ from the screen's.

SMILES	MgrA DNA FP	Sa helicase inh
O=C(CS(=O)(=O)c1cn(Cc2ccc(Cl)cc2)c2ccccc12)N1CCCC1	4.5	8.0
Cc1cccc(-n2c(SC3CCOC3=O)nnc2-c2cccc(S(=O)(=O)N(C)C)c2)c1 (configuration not stated)	/	-12.0
Cc1ccc(NC(=O)c2c(Cl)nc3sccn23)cc1NC(=O)c1c(Cl)nc2sccn12	/	-2.0
CCOC(=O)CSc1c(C)[nH]c2ccccc12	1.7	/
CCc1ccc(NC(=O)Cn2c(=O)n(C(C)C)c(=O)c3oc4ccccc4c32)cc1	0.1	6.0
CC(=O)Nc1ccc2c(c1)C(=O)N(c1ccccc1)C2=O	-1.8	15.0
N#CCCn1c(=S)[nH]c2ccccc21	/	4.0
CCOC(=O)c1cc(NC(=O)N(CC)CC)c(C)nc1C	/	-17.0
CN=C1SC(CC(=O)Nc2ccccc2)C(=O)N1C (configuration not stated)	/	1.0
CCC(=O)C1C(=O)c2ccccc2C1=O	-2.1	/
C=C(C)c1cccc(C(C)(C)NC(=O)NC2CC(C)(C)NC(C)(C)C2)c1	1.9	-15.0
COC(C)(OCCn1c2ccccc2c2ccccc21)c1ccccc1 (configuration not stated)	-2.6	-3.0
CCOC(=O)N1CCN(C(=O)CSc2nc(=O)n3ccc(C)cc3n2)CC1	/	6.0
Cc1ccc2nc(-c3ccc(NC(=O)Nc4ccccc4)cc3)sc2c1	-1.6	7.0
CN(C(=O)CSc1nc(-c2cccs2)cc(C(F)(F)F)n1)c1ccccc1	-0.6	5.0
CC(C)OC(C)n1cccc1-c1ccccc1 (configuration not stated)	1.2	4.0
CCC(C(=O)Nc1c(C)cccc1C)n1c(C(=O)OC)cc2sc(C)cc21 (configuration not stated)	/	6.0
Nc1cccc(CN2CCCC2)c1	-1.3	4.0
CC(C)(C)NS(=O)(=O)c1ccccc1	-0.2	-7.0
CCN1C(=O)c2cccc3c(S(=O)(=O)N4CC(C)OC(C)C4)ccc1c23 (configuration not stated)	/	14.0

Whole records as entered above. Order of values: MgrA DNA FP, Sa helicase inh
Record of Cc1cccc(-n2c(SC3CCOC3=O)nnc2-c2cccc(S(=O)(=O)N(C)C)c2)c1 (configuration not stated) : /, -12.0
Record of CCOC(=O)N1CCN(C(=O)CSc2nc(=O)n3ccc(C)cc3n2)CC1 : /, 6.0

Further records.
SMILES	MgrA DNA FP	Sa helicase inh
O=C(c1ccc2c(c1)N(Cc1ccccc1)C(=O)c1ccccc1S2=O)N1CCCCC1 (configuration not stated)	/	10.0
CC1(C)Cc2ccccc2-c2nc3n(c(=O)c21)CCCS3	0.1	8.0
Cc1cc(C)nc(SCCC(=O)OCN2C(=O)c3ccccc3C2=O)n1	/	14.0
NNC1=NC2CS(=O)(=O)CC2S1 (configuration not stated)	0.6	-5.0
COc1ccc(-n2c(=O)c3ccccc3n(Cc3ccccc3)c2=O)cc1OC	/	11.0
Cc1scc(CN(C)Cc2ccccc2)c1C	-1.8	-6.0
O=C(O)c1cccc(N2C(=O)c3cccnc3C2=O)c1	1.2	10.0
COc1ccc(OC)c(N(C)S(=O)(=O)c2cc(Br)cnc2N)c1	4.4	19.0
Cc1cc(C)c(N=C2SCC(=O)N2Cc2ccco2)c(C)c1	/	3.0
O=C(O)Cn1nc2ccccc2n1	/	20.0
O=C(NC(Cc1c[nH]c2ccccc12)C(=O)O)c1ccc(Cl)cc1 (configuration not stated)	1.1	27.0
CSC(=S)NCc1cccs1	-2.1	6.0
CC1CC(=O)C2=C(C1)OC(N)=C(C#N)C21C(=O)Nc2ccccc21 (configuration not stated)	-1.8	/
Cc1ccc(Cn2nnc3c(C)nn4c(-c5cccnc5)nnc4c32)cc1	/	-12.0
CCN(CC)c1ncc2c(n1)CC(c1ccco1)CC2=O (configuration not stated)	/	0.0
CCc1ccc([C@H]2C(C#N)=C(N)C(C#N)(C#N)C3=CCN(C(=O)OC)C[C@@H]32)cc1	18.4	-41.0
O=C(CO/N=C/c1ccco1)NCc1ccccc1	/	-10.0
CCCOc1ccc2c3c(c(=O)oc2c1OCCC)CCC3	-0.6	-17.0
O=C1CC(Cc2ccccc2)C(=O)N1Cc1ccco1 (configuration not stated)	-1.1	1.0
Cc1nn(-c2ccccc2)c(C)c1C(=O)OCc1cccc(S(=O)(=O)N(C)C)c1	/	-14.0
C=CCNC(=O)c1ccc2c(c1)NC(=O)C(C)N2 (configuration not stated)	/	-22.0
CC(C)c1ccc(C2C(C#N)=C(N)SC(N)=C2C#N)cc1	-6.8	-125.0
CC(c1nc2ccccc2c(=O)[nH]1)N1CCN(Cc2ccc(Cl)s2)CC1 (configuration not stated)	/	-13.0
Cc1cccc(C)c1NC(=O)CSC(=O)c1sc2ccccc2c1Cl	-0.4	/
COc1ccc(CN(CCC2CCOC(C)(C)C2)C(C)=O)cc1 (configuration not stated)	/	-6.0
O=C(NCc1ccccc1)c1ccc2ncsc2c1	/	-14.0
CN(C(=S)NC(=O)c1ccco1)C1CCS(=O)(=O)C1 (configuration not stated)	/	-1.0
Fc1ccc(CNc2ccc(N3CCOCC3)cc2)cc1	0.5	-5.0
Cc1cc(C)n2nc(SCC(=O)NC(C)CCc3ccccc3)nc2n1 (configuration not stated)	-0.1	5.0
O=C(O)/C=C\C(=O)Nc1ccccc1SCC(O)Cn1ccc(C(F)(F)F)n1 (configuration not stated)	-2.8	/
COCCCn1cnn2c(=O)c3ccccc3nc2c1=O	/	-9.0
O=C(Nc1ccccc1F)N1CCCC1c1cccnc1 (configuration not stated)	0.3	/
Cc1cccc(OC(=O)Cc2ccc(F)cc2)c1	-5.8	8.0
COc1ccc(C(=O)Nc2nc(-c3ccc(C#N)cc3)cs2)c(OC)c1	/	11.0
CCOc1ncnc2c1sc1nc(C)cc(C)c12	-0.2	/
Cc1nonc1N(Cc1ccc(F)cc1)S(=O)(=O)c1ccccc1	-0.4	3.0
CCCCn1c(=N)n(CC(O)COc2ccc(OC)cc2)c2ccccc21 (configuration not stated)	1.9	7.0
CCc1ccc2[nH]c(C(=O)Nc3ccccc3C(C)CC)cc2c1 (configuration not stated)	-7.0	/
N#Cc1c(N)nc2c(c1-c1cccnc1)CCCCC2	-1.0	4.0
CNC(=O)C12CC3CC(C)(CC(C)(C3)C1)C2	-0.5	8.0
COc1ccccc1C1CCN(S(=O)(=O)c2ccc(Cl)cc2)CC1	-1.2	/
Cc1ccc2sc(-c3nc4ccccc4s3)nc2c1	1.2	9.0
O=C(NC(C(F)(F)F)C(F)(F)F)OCc1ccc(F)cc1	/	-25.0
CCC(=O)Nc1cc(C(F)(F)F)ccc1N1CCCC1	-0.6	4.0
COc1ccc(-n2cc(-c3ccccc3)c3c(=O)[nH]cnc32)cc1	/	-18.0
CN=S(=O)(Nc1ccccc1)c1ccc(C)cc1 (configuration not stated)	/	12.0
Cc1nn(-c2ccccc2)c(C)c1SCC(=O)O	/	8.0
CCOC(=O)c1c(C)c(-c2ccccc2)n(CC(=O)N2CCN(c3ccccn3)CC2)c1C	/	-16.0
O=C1COc2ccc(-n3cccc3)cc2N1	-0.9	/
CN(C)/C=C/C=c1/c(=O)c2cccc3cccc1c32	5.1	/
CCOC(=O)c1cc(C)nc(N2CCC(C(N)=O)CC2)c1C#N	-1.9	/
Cc1nc(Cl)c(C#N)c2c1CCCC2	/	-2.0
CC1CCCCC1NC(=O)COC(=O)c1ccc2c(c1)NC(=O)CS2 (configuration not stated)	/	-12.0
O=C1N(Cc2cc(=O)n3ccccc3n2)c2ccccc2S(=O)(=O)N1c1ccc(Cl)cc1	4.7	-10.0
c1ccc(Nc2nc3ccccc3n3cnnc23)cc1	0.6	18.0
Cc1ccc(NC(=O)/N=C2/NC(=O)C(C(C)C)O2)cc1 (configuration not stated)	/	0.0
Cc1ccc(-n2c(SCC(N)=O)nc3ccccc3c2=O)cc1	-2.8	0.0
C=C(NCc1cccnc1)c1ccc(Cl)cc1	-1.0	/
COC(=O)C1(C)NC(c2ccc(OC)cc2)C2C(=O)N(c3ccccc3)C(=O)C21 (configuration not stated)	0.5	5.0
N#CCOc1ccc2c(C#N)c3ccccn3c2c1	1.8	/
Going on with the list:
SMILES	MgrA DNA FP	Sa helicase inh
CSc1nnnn1-c1cccc(O)c1	2.3	12.0
O=C(NC1CCCC1)c1cc(-c2ccc(Cl)cc2)on1	/	4.0
CCOc1ccc(/C=N/NS(=O)(=O)c2ccc(C)cc2)cc1	-0.9	/
CCOC(=O)Cn1cc(/C=C2\C(=O)NC(=O)N(c3ccc(F)cc3)C2=O)c2ccccc21	22.5	-100.0
C1C/C(=N/N=C2\CCCc3nonc32)c2nonc2C1	0.7	-11.0
COc1ccc(N2Cc3ccccc3C3(CCOCC3)C2=N)cc1	-0.6	-3.0
CCOC(=O)c1ccc(NC(=O)CSc2nnc(CNc3ccc(C)cc3C)n2Cc2ccco2)cc1	-0.2	4.0
C=CCn1c(COc2cccc3cccnc23)nnc1SCC(=O)O	/	-13.0
Cc1cc(=O)[nH]c(SCCC(=O)O)n1	-0.3	3.0
C/C(=N\C(=O)NN)c1cnn(-c2ccccc2)c1C	-0.9	/
Cc1[nH]nc2nc(SCC(=O)N3CCCC3)n(-c3ccc(Br)cc3)c(=N)c12	3.0	4.0
CCOC(=O)N1CCC(NC(=O)CCc2c(C)nc3ncnn3c2C)CC1	/	3.0
O=c1c(Cl)c(Nc2ccc3c(c2)OCO3)cnn1C12CC3CC(CC(C3)C1)C2	/	3.0
COc1cc(CC(=O)Nc2ccccc2N2CCOCC2)cc(OC)c1OC	/	-5.0
CN(C(=O)Cc1ccc(Br)cc1)c1ccccc1	1.8	6.0
C=CCN1C(=O)c2ccc(C(=O)OCc3nc4cc(C(=O)OC)ccc4c(=O)[nH]3)cc2C1=O	/	-8.0
Cc1ccc(C(=O)CSC#N)o1	-1.5	9.0
O=C(c1ccc(-c2ccccc2)s1)N1CCOCC1	-3.6	-16.0
O=C1CN(C(=O)Cc2c(Cl)cccc2Cl)CCN1	/	7.0
COC(=O)C1CCN(c2cc(=O)n(-c3ccccc3Cl)c(=O)[nH]2)CC1	/	4.0
Cc1cccc(COn2c(=O)c[n+]([O-])c3ccccc32)c1	-0.4	-5.0
COc1ccc(OCCOC(=O)c2n[nH]c3ccccc23)cc1	/	2.0
CC1(NC(N)=O)CCS(=O)(=O)C1 (configuration not stated)	/	-18.0
O=c1ccc2ccc(Oc3ncccn3)cc2o1	/	7.0
COC(=O)c1cccc(-c2ccc(/C=C(/C#N)c3ccc(Cl)cc3)o2)c1	1.1	-10.0
c1ccc(-n2ncc3c(N4CCCC4)ncnc32)cc1	-0.5	/
Cc1ccc(C)c(NC(=O)C2CCCN(c3cnccn3)C2)c1 (configuration not stated)	/	-16.0
CN(Cc1ccc2c(c1)OCO2)C1CCCCC1	0.1	-11.0
CCC(=O)Nc1cccc(C(=O)OC)c1	-2.3	/
CCOC(=O)C1=C(O)C(=O)N(C(C)(C)C)C1	4.7	0.0
Cc1ccsc1/C=N/n1cnc2scc(-c3cccs3)c2c1=O	/	0.0
CCCSc1nc2c([nH]c3ccccc32)c(=O)n1-c1cc(C)cc(C)c1	2.0	8.0
COc1ccc(-c2nc3sc(-c4ccc(OC)cc4)nc3s2)cc1	7.5	-7.0
Cc1cc(/C=C(/C#N)c2ccc(Cl)cc2)c(C)n1C(C)C	3.7	20.0
CC1=C(C(=O)Nc2ccc(CC(=O)N3CCN(c4ccccc4F)CC3)cc2)SCCO1	/	14.0
Cc1cccc(OCC(N)=O)c1	/	-9.0
CC1CN(c2ccc(NC(=O)c3ccco3)cc2C(=O)O)CC(C)O1 (configuration not stated)	-0.6	/
CN1C(=O)S/C(=C/c2ccc(OCc3ccc(C(=O)O)o3)cc2)C1=O	-2.0	8.0
CN(C)c1ccc(C(C(=O)NC2CCCCC2)N(Cc2ccco2)C(=O)Cc2c[nH]c3ccccc23)cc1 (configuration not stated)	0.5	6.0
Cc1ccc2c(c1)CCCN2C(=O)c1ccoc1C	1.4	7.0

A stretch from the list above, as a working copy:
SMILES	MgrA DNA FP	Sa helicase inh
Cc1cccc(OCC(N)=O)c1	/	-9.0
CC1CN(c2ccc(NC(=O)c3ccco3)cc2C(=O)O)CC(C)O1 (configuration not stated)	-0.6	/
CN1C(=O)S/C(=C/c2ccc(OCc3ccc(C(=O)O)o3)cc2)C1=O	-2.0	8.0
CN(C)c1ccc(C(C(=O)NC2CCCCC2)N(Cc2ccco2)C(=O)Cc2c[nH]c3ccccc23)cc1 (configuration not stated)	0.5	6.0
Cc1ccc2c(c1)CCCN2C(=O)c1ccoc1C	1.4	7.0

More structures.
SMILES	MgrA DNA FP	Sa helicase inh
NC(=O)CNC(=O)Cc1c(Cl)cccc1Cl	/	12.0
Cc1cc(N(Cc2ccc(Cl)cc2)C(=O)c2ccc(Cl)cc2)no1	/	-19.0
NS(=O)(=O)c1ccc(Cl)cc1Sc1ccccc1C(=O)O	-0.7	/
O=C(/C=C/c1ccco1)OCC(=O)N1CCCc2ccccc21	/	7.0
O=c1[nH]c(=O)n([C@H]2CC(O)[C@@H](CO)O2)cc1I (some centres not stated)	7.6	/
CCOc1ccc2nc(NC(=O)C3CC3)sc2c1	/	-10.0
O=C(N/N=C/C1CC=CCC1)c1ccccc1 (configuration not stated)	2.3	19.0
COc1ccc(-c2nc(CC(=O)NCC(c3ccco3)N(C)C)cs2)cc1 (configuration not stated)	/	5.0
O=S1(=O)CC(O)C(NCc2ccco2)C1 (configuration not stated)	-2.5	-2.0

Part of the list above, as a markdown table.
| Structure | MgrA DNA FP | Sa helicase inh |
| --- | --- | --- |
| NS(=O)(=O)c1ccc(Cl)cc1Sc1ccccc1C(=O)O | -0.7 | / |
| O=C(/C=C/c1ccco1)OCC(=O)N1CCCc2ccccc21 | / | 7.0 |
| O=c1[nH]c(=O)n([C@H]2CC(O)[C@@H](CO)O2)cc1I (some centres not stated) | 7.6 | / |
| CCOc1ccc2nc(NC(=O)C3CC3)sc2c1 | / | -10.0 |
| O=C(N/N=C/C1CC=CCC1)c1ccccc1 (configuration not stated) | 2.3 | 19.0 |
| COc1ccc(-c2nc(CC(=O)NCC(c3ccco3)N(C)C)cs2)cc1 (configuration not stated) | / | 5.0 |
| O=S1(=O)CC(O)C(NCc2ccco2)C1 (configuration not stated) | -2.5 | -2.0 |

Compound activity as filed in PubChem BioAssay.
